BJeLR lethal – kills HRASV12-expressing BJeLR cells. BJeLR (HRASV12) viability, CellTiter-Glo ATP luminescence, 48 h; reference of the scale not given here. inhibition, % (no concentration beside the values). 300,000 compounds, 0.17% hits. AID 1554;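 active means replicate mean above 50%; inconclusive means above 50% but judged a plate artefact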;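 further: 50 nL library stock added to about 25 µL; numbers are from one replicate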
ugtP null kill – growth inhibition of S. aureus ugtP deletion strain | S. aureus RN4220 ugtP deletion, OD600 growth, 16 h; some inactives read as strong as hits | growth inhibition, % (concentration not given with the values) | 330,000 compounds, 0.54% hits;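 active means z-score under -3 and OD600 up to 0.15 on both plates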;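 further: plate controls were untreated wells for no effect and antibiotic for full effect; wells of about 80 µL received 100 nL stock; the first replicate is given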
PrP UTR inh – suppresses PrP 5' UTR mRNA reporter expression; inhibition, % (test concentration not listed); AID 488862; 340,000 compounds, 0.35% hits; cell-based PrP 5' UTR mRNA reporter, plate reader;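 active means every replicate at 50% or more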;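 further: 0 = median of the neutral control wells; tested in H4 reporter cells; numbers are from one replicate; inactives centre near -14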
Bead autofluor – compound fluorescence in toxin protease inhibitor counterscreen; compound autofluorescence counterscreen, microsphere flow cytometry; stronger effect = higher value; fluorescence intensity (concentration not given with the values); 360,000 compounds, 3.1% hits; AID 624483;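 active means at least 3 SD above the mean of all compounds, about 16000 in these data; inconclusive means too few beads counted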;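 further: 100 nL of 1 mM stock went into each well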
Sa RN4220 lethal – kills Staphylococcus aureus RN4220 | 330,000 compounds, 0.33% hits | inhibition, % (concentration not given with the values) | S. aureus RN4220 growth, OD600, 16 h;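 active means z-score of -3 or lower and OD600 up to 0.18 on both plates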;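 further: plate controls were untreated cells for no effect and reference antibiotic for full effect; stock transfer was 100 nL into about 80 µL; one replicate is shown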
Mtb hypoxia inh – Mtb hypoxia fluorescent reporter inhibition. M. tuberculosis hypoxia-regulated fluorescent reporter, fluorescence. fluorescence inhibition, % (no concentration beside the values). 300,000 compounds, 0.1% hits. AID 1159583;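 active means 35 to 45% if threefold the growth effect, above 45% if 1.5-fold the growth effect; inactive means the rest, general growth blockers included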;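 further: wells of about 50 µL received 100 nL stock; 0% = vehicle wells and 100% = reference inhibitor wells; whole bacteria with a GFP reporter of the hypoxia response; strong numbers were not always called active; many hits fall short of the cut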
Mtb hypoxia inh growth – recorded beside Mtb hypoxia inh, whose call it bears; growth inhibition, %; measured here: M. tuberculosis growth (absorbance);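 0% = vehicle and 100% = reference antibiotic; read after six days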
Active calls of the source: *; ? = inconclusive; / = no result given.

Value order: BJeLR lethal	ugtP null kill	PrP UTR inh	Bead autofluor	Sa RN4220 lethal	Mtb hypoxia inh	Mtb hypoxia inh growth
(1) NNc1ncnc2sc3c(c12)CCC3
 : 3	1	-21	4453	3.1	-4	-4
(2) Cc1cc(C)nc(/N=C(\N)Nc2ccc(S(=O)(=O)Nc3nccc(C)n3)cc2)n1
 : 4	3	-13	3480	3.8	1	7
(3) O=C1NC(=O)C(Cc2ccccc2)C(=O)N1
 : /	1	2	2933	2.8	6	0
(4) O=C(CN1CCN(C(=O)COc2cccc(F)c2)CC1)Nc1ccc(Cl)c(C(F)(F)F)c1
 : /	-11	/	5341	-1.9	8	8
(5) COc1cccc(C=NNC(=O)c2nnn(-c3nonc3N)c2CN(C)c2ccccc2)c1
 : /	-10	/	/	3.0	-11	-6
(6) CNC(=S)N/N=C/c1cc(Br)c(OCc2ccncc2)c(OC)c1
 : -8	/	-19	3762	/	/	/
(7) Cc1cc(S(=O)(=O)N2CCC3(CC2)OCCO3)c(C)cc1Cl
 : 11	4	-8	4668	0.0	11	2
(8) Cc1c(N=Cc2c(O)n(C)c(=O)[nH]c2=O)c(=O)n(-c2ccccc2)n1C
 : -10	0	/	4529	0.6	9	2
(9) O=C(Cn1ccc([N+](=O)[O-])n1)NCc1cccs1
 : 1	-1	1	8863	3.2	17	7
(10) CCNC(=S)NNC(=O)C(c1ccccc1)c1ccccc1
 : 9	7	-8	5328	-0.6	11	-2
(11) Cc1ccnc(NC(=O)CCCc2ccc(N(CCCl)CCCl)cc2)n1
 : /	5	-18	4057	7.7	12	1
(12) Cc1ccc(C(=O)C(C(=O)/C=C/c2ccccc2)=C2SCCCS2)cc1
 : 13	6	-31	2899	1.2	18	12
(13) COc1cccc(CNC(=O)Cc2ccc(NC(=O)C3=C(C)OCCS3)cc2)c1
 : -11	-5	-52	5412	-0.8	0	-3
(14) CC(OC(=O)c1cccc(S(=O)(=O)N2CCCC2)c1)C(=O)c1ccccc1 (configuration not stated)
 : 9	7	-4	4361	3.4	-1	-6
(15) Cc1cc(/C=C2\C(=O)NC(=S)N(C)C2=O)c(C)n1C1CCCCC1
 : -4	/	-31	6737	/	/	/
(16) Cc1ccc2c(c1)N(CC(=O)NCCc1c[nH]c3ccccc13)C(=O)CO2
 : -6	-2	9	23441*	-0.8	-2	1
(17) Cc1[nH]c(C)c(S(=O)(=O)N2CCN(c3cccc(Cl)c3)CC2)c1C(=O)N1CCCCC1
 : -15	4	-17	5118	4.0	-10	1
(18) CC1CC(C)CN(C(=O)COc2ccc([N+](=O)[O-])cc2Cl)C1 (configuration not stated)
 : 8	16	-35	4449	8.7	8	12
(19) CC(C)(C)OC(=O)N1CCC(C(=O)N[C@@H](Cc2c[nH]c3ccccc23)C(=O)O)CC1
 : 0	4	/	3507	-1.1	3	-6
(20) CCOC(=O)N1CCN(C(=O)c2ccc3nc4cc(Cl)ccc4c(=O)n3c2)CC1
 : -13	0	-15	11245	-2.6	3	2
(21) CCOC(=O)C(CO)NC(=O)C1(NC(C)=O)CCCC1 (configuration not stated)
 : /	0	-11	3582	0.7	11	10
(22) Cc1ccc(S(=O)(=O)N2CCCCC2)cc1NC(=O)c1cccs1
 : /	3	-2	6563	-1.8	-3	-5
(23) CN=C(SCc1ccccc1)c1c(O)n(C)c(=O)n(C)c1=O
 : 6	9	2	3813	4.3	-3	3
(24) CC(C)(C)OC(=O)N[C@@H](Cc1ccccc1)C(=O)NCC1CCC(C(=O)N[C@@H](CCC(N)=O)C(=O)O)CC1 (some centres not stated)
 : -1	7	-22	3788	0.5	-3	2
(25) COCC(C)NC(=O)CCc1nnc(C2(c3ccc(Cl)cc3)CCC2)o1 (configuration not stated)
 : -13	8	-41	2399	1.9	11	-3
(26) O=C(NCc1ccccc1OC(F)(F)F)C1CCC(=O)N(C2CC2)C1 (configuration not stated)
 : -3	0	-5	?	3.7	9	7
(27) COC(=O)[C@@H]1Cc2c([nH]c3ccccc23)C(C)(C)N1C(=O)CCl
 : 91*	10	-11	3477	0.7	22	19
(28) CCCOc1ccc(NC(=O)CNC(=O)c2cc(OC)cc(OC)c2)cc1OCCC
 : -7	6	-7	2156	-8.1	16	8
(29) CCC(=O)Nc1nnc(-c2ccc(OC)cc2)o1
 : -3	4	-54	5598	0.8	-5	-1
(30) O=C(CCC(=O)Nc1ccccc1)NN=C/C=C/c1ccccc1
 : /	-2	/	/	-2.9	-9	3

Entries of single compounds as entered above. Order of values: BJeLR lethal	ugtP null kill	PrP UTR inh	Bead autofluor	Sa RN4220 lethal	Mtb hypoxia inh	Mtb hypoxia inh growth
Listed for Cc1cc(S(=O)(=O)N2CCC3(CC2)OCCO3)c(C)cc1Cl : 11	4	-8	4668	0.0	11	2
Listed for Cc1cc(/C=C2\C(=O)NC(=S)N(C)C2=O)c(C)n1C1CCCCC1 : -4	/	-31	6737	/	/	/

More results.
Value order: BJeLR lethal	ugtP null kill	PrP UTR inh	Bead autofluor	Sa RN4220 lethal	Mtb hypoxia inh	Mtb hypoxia inh growth
(31) Cc1ccc(S(=O)(=O)N(CC(=O)Nc2cccc(N(C)S(C)(=O)=O)c2)c2ccc(Cl)c(Cl)c2)cc1
 : -4	-1	-15	5940	2.6	10	0
(32) O=C(CSc1ncnc2sc3c(c12)CCCC3)c1ccco1
 : -2	7	-29	2419	4.4	/	/
(33) NS(=O)(=O)c1ccc(CNC(=S)NCc2ccc(F)cc2)cc1
 : 8	1	-12	5744	2.5	6	1
(34) OCCN1CCN(c2ncnc3nc[nH]c23)CC1
 : 10	-9	2	4403	0.9	2	-2
(35) COc1ccc(S(=O)(=O)N(Cc2ccccc2)Cc2nc(-c3ccccc3)no2)cc1
 : /	-13	-20	2984	-3.1	/	/
(36) CCC(=O)NC(=S)Nc1ccc(S(=O)(=O)NC(C)C)cc1
 : 0	27	-1	11084	3.2	1	8
(37) CN(C(=O)CCN1C(=O)c2ccccc2C1=O)C1CCCCC1
 : 1	9	-20	7345	1.4	16	8
(38) COc1ccc(/C=C/C(=O)NC(=S)NCCc2ccc(OC)c(OC)c2)cc1
 : 7	-20	7	4242	4.8	-3	1
(39) O=CNc1ccccc1Oc1ccccc1
 : 1	-2	-8	4796	-0.7	6	13
(40) COc1ccc(NC(=O)/C(=C/c2cccnc2)NC(=O)c2cccs2)cc1
 : 0	6	6	1912	2.5	10	2
(41) CCOC(=O)CSc1nnc(CCCCCN2C(=O)c3cccc4cccc(c34)C2=O)o1
 : 0	6	-28	2490	6.4	13	9
(42) CCN(CC)c1ccc(-c2nn3c(-c4ccccc4OC)nnc3s2)cc1
 : 23	-1	52	?	5.1	15	8
(43) CCOC(=O)Cc1csc(NC(=O)Nc2ccc(F)cc2)n1
 : 2	-1	-27	6010	2.4	-3	2
(44) COc1ccc(Cn2c(O)c(C=Nc3ccccc3C(=O)O)c3ccccc3c2=O)cc1
 : -7	11	-34	4860	2.8	-8	7
(45) CC1(C)CC2CC(C)(CN2C(=O)c2cccs2)C1 (configuration not stated)
 : -6	-1	-3	3840	-3.1	-5	-1
(46) Nc1c(C(=O)CSc2nncn2-c2ccccc2)c(=O)[nH]c(=O)n1C1CC1
 : /	1	-4	3945	5.3	8	4
(47) COc1ccccc1C(=O)NCC(=O)OCC(=O)NNC(=O)c1ccc(Br)cc1
 : /	-1	-3	3588	0.6	5	6
(48) CN1CCN(c2nc3ccccc3nc2C(C#N)S(=O)(=O)c2ccccc2)CC1 (configuration not stated)
 : 14	2	/	/	0.3	2	8
(49) COc1ccccc1CCC(=O)Nc1cccc(S(=O)(=O)N2CCCCCC2)c1
 : -6	-4	-5	6270	4.0	9	6
(50) Cc1cccc(OCC(=O)N2CCOCC2)c1
 : 5	0	-22	1904	0.8	15	2
(51) CC(C)C1(CCNC(=O)c2cccs2)CCOC(C)(C)C1 (configuration not stated)
 : 7	10	/	?	2.9	10	7
(52) CC(=O)Nc1ccc(NC(=O)c2cc([N+](=O)[O-])cc([N+](=O)[O-])c2)cc1
 : -3	11	-9	3842	-2.8	6	18
(53) COc1ccc(CC(=O)O/N=C(\N)c2ccncc2)cc1
 : -3	-1	-42	5844	-3.5	-6	11
(54) COc1ccc(NC(=O)Cn2cc(C#N)c3ccccc32)cc1
 : 0	4	-8	4112	4.7	-8	-1
(55) COc1ccc(C(=O)Nc2ccc(S(=O)(=O)Nc3nccc(C)n3)cc2)cc1OC
 : 4	-1	-21	10155	4.1	/	/
(56) N#CC1=C(N)NC(SCc2ccc(F)cc2)=C(C#N)C12CCCCC2
 : 5	-16	-14	2846	4.0	/	/
(57) Nc1ncnc2c1ncn2[C@@H]1O[C@H](CNCc2ccc(OCc3ccccc3)cc2)[C@@H](O)[C@H]1O
 : /	11	-16	4187	0.2	4	2
(58) Cc1ccc(/C=C2\Oc3c(ccc(O)c3CN3CCN(CCO)CC3)C2=O)cc1
 : -3	-3	8	2079	1.0	3	0
(59) COCCNC(=O)C(c1ccncc1)N(Cc1ccccc1)C(=O)Cn1nnc2ccccc21 (configuration not stated)
 : 4	4	-21	2540	1.0	8	7
(60) Cc1cccc(OCC(=O)NNC(=O)CCN2CCN(c3ccccc3)CC2)c1C
 : /	-8	-17	4403	-3.6	-5	-2
(61) Cc1cccc(/C(N)=N/OC(=O)c2ccncc2)c1
 : -4	-12	-76	6246	0.8	-2	5
(62) CC(C)C(CCNCc1ccccn1)c1ccc(Cl)cc1 (configuration not stated)
 : 3	16	-13	3815	-0.8	5	1
(63) CCOc1ccccc1NC(=S)N1CCCCCC1
 : -1	3	-24	6134	3.2	1	-5
(64) O=C(CCc1ccccc1)NNC(=S)NCCc1ccccc1
 : 10	6	-9	/	4.6	11	-4
(65) COc1ccc(/C=C2\SC(=S)N(CCCCCC(=O)Nc3cc(C)on3)C2=O)cc1OC
 : -7	5	-9	5634	5.9	10	2
(66) CCCS(=O)(=O)N1CCC(C(=O)N2CCC(Cc3ccccc3)CC2)CC1
 : 2	-9	-1	?	-13	5	5
(67) CCc1ccc(NC(=O)Nc2ccon2)cc1
 : -1	-2	-51	5883	0.5	0	-6
(68) CC1CC(C)CN(C(=O)COC(=O)C2CCN(S(=O)(=O)c3ccc4c(c3)OCCO4)CC2)C1 (configuration not stated)
 : -6	6	-11	4204	1.6	12	-3
(69) CCCNc1nc2c(c(=O)n(C)c(=O)n2C)n1CCCc1ccccc1
 : -2	/	-48	4265	/	/	/
(70) COc1ccccc1NC(=O)C1=C(C)NC2=C(C(=O)CCC2)C1c1ccc(C)o1 (configuration not stated)
 : -2	-3	-14	9540	1.3	-7	11
(71) Cn1ncc(Br)c1C(=O)NC12CC3CC(CC(C3)C1)C2
 : 2	-6	3	2348	2.2	21	6
(72) Cc1ccc(C(=O)Nn2cnc3scc(-c4cccs4)c3c2=O)c(O)c1
 : 20	1	-1	6172	-1.3	-1	14
(73) O=C(Oc1ccc2c(c1)OCO2)c1cc2c(s1)CCC2
 : 1	27	-33	3933	11	4	1
(74) Cc1cc([N+](=O)[O-])ccc1NC(=O)Cc1ccc(F)cc1
 : 1	6	-7	2181	2.3	-10	-9
(75) COc1ccc(OC)c(NC(=O)c2cc(-c3ccc(C)cc3O)n[nH]2)c1
 : 1	-7	-16	3476	2.9	12	11
(76) Cc1ccc(NC(=O)Nc2cccc([N+](=O)[O-])c2)cc1F
 : 5	48	-160	2490	55	5	1
